# Calb FLC = C. albicans growth inhibition with fluconazole, primary screen, CaCi-2 strain, Alamar Blue fluorescence | C. albicans CaCi-2 (fluconazole-resistant clinical isolate) + fluconazole, 48 h | growth inhibition, % (no concentration beside the values) | 0.57% of 300,000 active | AID 1979, 2009;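 active means most replicates above 75%; inconclusive means exactly half above 75%; inactive means most below 75%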;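 further: all wells also contain fluconazole at 8 µg/ml as a sub-toxic cotreatment; 0% = median of DMSO wells and 100% = median of geldanamycin control wells; wells of about 8 µL received 7.5 nL stock; the first replicate is given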
# T cruzi inh = inhibitors of intracellular T. cruzi growth, primary screen, luminescence, NIH3T3 host cells; 1.4% of 300,000 active; T. cruzi beta-gal in NIH3T3, 90 h; inhibition, % (no concentration beside the values); AID 1885, 2009;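 active means mean inhibition across valid replicates above about 55%, limit read from the data; inconclusive means mean below that limit but half or more replicates reach it; inactive means mean below it, under half of replicates reach it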;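 further: signal also drops with host cell toxicity which is not excluded here; 0% = plate median of DMSO wells and 100% = zero luminescence signal; higher percent means less beta-gal luminescence so fewer parasites; stock transfer was 50 nL into about 50 µL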
# Bfl-1 A1 inh = caspase 3/7 activation in MEF A1-2A-BIM cells, primary screen, A1 inhibitor project, cell-based, luminescence, HTS | Caspase-Glo 3/7 luminescence, 3 h; percent of clofoctol response, vehicle zero | caspase activation, % (test concentration not listed) | 0.066% of 330,000 active;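 active means over half of replicate activation scores above 10%, or exactly half above 10 with the replicate mean above 10; inconclusive means replicate mean below 10 yet half the replicates above 10; inactive means over half of replicates below 10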;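 further: wells of about 30 µL received 50 nL stock; many hits fall short of the cut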
# Vif TR-FRET = inhibitors of Vif binding to APOBEC3G peptide, primary screen, biochemical, TR-FRET, GST-Vif 1-94, biotin-A3G peptide, dose response retest (AID 1117319) | Virion infectivity factor (Human immunodeficiency virus type 1 group M subtype B (isolate … | inhibition, %; hits with a dose series show IC50 in µM | 0.57% of 260,000 active | TR-FRET GST-Vif / biotin-A3G peptide binding; higher % means a stronger effect; test concentration not given here; strong numbers were not always called active;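 active means above the screen mean plus three standard deviations and confirmed in dose response; inconclusive means results disagree or hit not tested in dose response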;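 further: Vif residues 1-94 fused to GST binding biotinylated APOBEC3G peptide 110-148; 0% = full assay without inhibitor and 100% = GST in place of GST-Vif; retest series ran down from 100 µM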
# AF4-AF9 inh = inhibitors of AF4 peptide binding to AF9, primary screen, biochemical, AlphaScreen, biotin-AF4 peptide, FLAG-AF9, single point | Protein AF-9 (Homo sapiens), P42568 | inhibition, % at 10 µM | 0.47% of 350,000 active;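 active means every replicate reaching a set inhibition limit, whatever the replicate mean, cut at about 25% in these data; inconclusive means mean inhibition reaches that limit but some replicates miss it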;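 further: 0% = plate neutral control median and 100% = total signal loss; the record names both 10 and 1 µM as test concentration; the first replicate is given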
# Target sequence (P42568 whole entry, looked up): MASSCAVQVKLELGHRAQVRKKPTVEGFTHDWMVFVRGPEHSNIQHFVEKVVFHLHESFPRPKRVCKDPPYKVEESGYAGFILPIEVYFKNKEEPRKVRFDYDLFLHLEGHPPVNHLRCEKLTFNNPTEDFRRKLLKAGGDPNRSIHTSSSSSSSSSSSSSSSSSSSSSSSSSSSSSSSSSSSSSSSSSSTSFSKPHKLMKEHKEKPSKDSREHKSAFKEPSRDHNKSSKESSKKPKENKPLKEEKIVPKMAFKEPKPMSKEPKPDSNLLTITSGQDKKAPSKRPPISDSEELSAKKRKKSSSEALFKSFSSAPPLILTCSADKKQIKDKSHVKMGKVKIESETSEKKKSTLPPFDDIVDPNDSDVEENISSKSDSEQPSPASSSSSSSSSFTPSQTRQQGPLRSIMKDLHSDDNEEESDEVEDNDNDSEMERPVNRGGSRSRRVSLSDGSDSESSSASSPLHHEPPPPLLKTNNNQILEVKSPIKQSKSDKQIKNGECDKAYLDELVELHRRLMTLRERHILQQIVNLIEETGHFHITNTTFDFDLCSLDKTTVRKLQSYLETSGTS
# Beta cell apopt = inhibitors of cytokine-induced beta cell apoptosis, primary screen, luminescence; INS-1E cytokine-induced death, ATP luminescence, 48 h; percent of positive-control rescue, neutral wells zero; protection from apoptosis, % (concentration not given with the values); 0.8% of 300,000 active;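 active means all replicates at 75% or more, or half of them and the mean; inconclusive means half reach 75% but not the mean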;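 further: 0% = cytokine-treated negative control wells and 100% = positive control rescue; higher means more ATP so stronger rescue from cytokine killing; wells of about 40 µL received 100 nL stock; the first replicate is given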
# Ecoli rRNA inh = reduced GFP signal of wild-type E. coli, primary screen, bacterial rRNA inhibitor project, GFP/RFP fluorescence, OD600, single point; E. coli WT GFP vs humanized-ribosome RFP mutants, 24 h; stronger effect = lower value; DMSO median 0, no signal -100; GFP signal change (wild-type ribosome), % (no concentration beside the values); 1.6% of 350,000 active; AID 720706, 2013;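 active means significant combined selectivity score with lowered wild-type GFP, culture density cut under 30%, mutant RFP and density less affected; inactive means any of these conditions unmet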; further: one replicate is shown; some compounds called inactive have numbers as strong as hits
# RanGTP-Impb inh = inhibitors of RanGTP-importin-beta interaction, primary screen, biochemical, FRET, CFP-Ran, YFP-importin-beta, homogeneous | inhibition, % (no concentration beside the values) | AID 2216, 2009 | 1.1% of 300,000 active | cell-free CFP-Ran/YFP-importin-beta FRET ratio;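 active means most replicates above 15%; inconclusive means exactly half above 15%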;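 further: 0% = DMSO wells and 100% = Ran loaded with GDP instead of GTP; wells of about 40 µL received 100 nL stock; the first replicate is given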
# Ecoli rRNA inh OD600 = also measured in Ecoli rRNA inh; calls as there; OD600 change, %; measured here: OD600 growth;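 optical density of the mix in the first replicate; 0 = DMSO median and -100 = no signal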
# Ecoli rRNA inh RFP = further read-out of Ecoli rRNA inh, marked with its call; RFP signal change, %; measured here: RFP humanized mutant strains;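 first replicate; 0 = DMSO median and -100 = no signal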
# Active calls of the source: *; ? = inconclusive; nt = no result given; & = joins results of further samples. The list is partial; the hit share may differ from the screen's.
# Under each structure: Calb FLC	T cruzi inh	Bfl-1 A1 inh	Vif TR-FRET	AF4-AF9 inh	Beta cell apopt	Ecoli rRNA inh	Ecoli rRNA inh OD600	Ecoli rRNA inh RFP	RanGTP-Impb inh
COc1cc(C(=O)NCc2cc(C)nc3ccccc23)cc(OC)c1OC
    -1.9	2.0	3.1	4.7%	-1.6	5.4	9.3	12.3	17.6	-10.3
O=C(Nc1ccc(O)c(-c2nc3ccccc3s2)c1)c1cccs1
    5.9	-5.8	-1.3	-3.0%	1.3	0.0	7.7	23.4	7.3	1.3
N#C/C(=C\c1cn[nH]c1-c1ccccc1)C(=O)NC1CCCCCC1
    -15.5	13.4	-0.3	22.2%	nt	-3.5	nt	nt	nt	2.2
CC(=O)c1sc2nc(-c3ccc(C)cc3)c3c(c2c1N)CCCC3
    -3.4	21.0	1.1	-11.4%	nt	9.1	nt	nt	nt	66.4*
COc1ccc(C(=O)Nc2cnc3ccccn3c2=O)cc1
    0.8	-5.5	-0.9	-7.6%	-43.9	-1.4	-0.1	4.7	-3.6	-0.2
Cc1c(C(=O)N2CCCc3ccccc32)oc2ccccc12
    -11.4	14.5	0.1	nt	-4.9	nt	-69.0	-79.1	-29.6	?
CC1CCCCC1NS(=O)(=O)c1ccc2c(c1)CC(=O)N2C (stereo not given)
    5.7	-1.4	0.6	nt	-0.5	3.8	8.7	7.5	4.2	0.2
COc1cccc(CN2CC(C(=O)NCCCn3cccn3)CCC2=O)c1 (stereo not given)
    -9.8	-9.9	-0.9	nt	-3.4	1.6	10.8	19.4	-1.8	0.9
Cc1ccc(S(=O)(=O)N/N=c2\sc3ccccc3n2C)cc1
    3.5	3.7	0.2	nt	nt	nt	nt	nt	nt	0.0
O=C(NCc1ccccn1)c1cc2c(ccc3ccccc32)oc1=O
    -1.2	-10.1	0.0	nt	nt	1.5	-7.1	-5.4	3.0	36.8*
O=S(=O)(c1cnc(Cl)c(Cl)c1)N1CCc2ccccc21
    10.7	-16.2	-0.2	18.4%	-3.4	-3.9	-33.1*	-1.9*	-1.1*	1.5
O=c1cc(-c2ccccc2)nc2nc(CCc3ccccc3)[nH]n12
    -13.5	-40.3	-0.3	0.2%	nt	-7.0	nt	nt	nt	0.2
O=C1NC2(CCCCO2)CO1 (stereo not given)
    2.8	-25.8	0.3	nt	-3.9	-3.1	5.0	9.5	-4.2	4.8
CCOC(=O)c1c(O)c2ccccc2n(C)c1=O
    10.2	2.7	-2.7	20.6%	-2.8	-0.2	5.2	5.1	0.2	-3.1
O=C(COC(=O)c1ccccc1F)Nc1ccc(S(=O)(=O)N2CCOCC2)cc1
    nt	nt	0.0	-2.9%	-0.4	-1.0	-3.7	0.8	0.3	nt
COc1ccc(C(=O)NCC(C)NC(=O)c2ccc(OC)cc2)cc1 (stereo not given)
    -3.8	-4.6	-0.6	nt	-0.4	-4.4	9.2	9.1	0.7	0.8
CNC(=O)c1cc(S(=O)(=O)N(C)C)ccc1Cl
    -4.2	-6.8	0.4	0.4%	nt	2.6	nt	nt	nt	nt
CC(=O)C[C@H](O)CC(=O)[C@@H]1OC(=O)[C@@H](C)C/C=C\Cc2ccccc21
    nt	nt	-0.2	-0.7%	-0.6	-6.4	-2.4	5.0	4.0	nt
O=C(Nc1cccc2cccnc12)c1ccc(Br)cc1Br
    3.1	10.7	0.3	nt	nt	-4.7	nt	nt	nt	-2.4
Cc1ccc2c(c1)N1C(=O)c3ccccc3C1C1=C(CC(C)(C)CC1=O)N2 (stereo not given)
    -4.2	6.2	0.2	-0.7%	nt	2.4	nt	nt	nt	3.2
CN1CCN(S(=O)(=O)c2ccc(NC(=O)c3ccccc3Cl)cc2)CC1
    -4.9	-26.2	-0.5	0.0%	3.6	-9.1	-5.8	4.1	-3.4	9.2
O=C(O)C1CCCCC1C(=O)Nc1cc(C(F)(F)F)ccc1Cl (stereo not given)
    13.1	0.7	0.1	9.5%	-11.8	0.3	5.6	3.5	0.9	-0.7
CC(C)CCOc1cccc(OCC(=O)N(C)C2CCS(=O)(=O)C2)c1 (stereo not given)
    -4.9	1.1	0.5	2.9%	nt	-3.9	nt	nt	nt	2.3
O=C(O)C1CCCCC1C(=O)NCCc1c[nH]c2ccccc12 (stereo not given)
    8.7	-13.2	0.1	11.0%	nt	nt	nt	nt	nt	-0.6
COc1ccc(C(=O)N2CCNC(=O)C2CC(=O)Nc2ccc(C)cc2)cc1 (stereo not given)
    -8.6	-7.2	-0.5	nt	3.2	-16.2	1.8	-0.1	-0.4	-1.2
O=C(c1c(F)cccc1F)N(Cc1ccccn1)C1CC1
    -1.9	-6.9	-0.7	0.5%	nt	-2.4	nt	nt	nt	3.8
O=C1/C(=C/c2cccc(Br)c2)SC(=S)N1/N=C/c1cc([N+](=O)[O-])ccc1O
    7.8	9.6	-0.4	?	-6.0	9.5	-6.9	-7.8	-0.7	2.7
COc1ccc(NC(=O)C(C)N2C(=O)c3ccccc3C2=O)cc1S(=O)(=O)N1CCOCC1 (stereo not given)
    -3.2	5.1	0.8	13.8%	0.5	-1.4	9.5	12.9	4.4	0.0
CC(=O)Nc1cc(NC(=O)CCCC(=O)O)ccc1Cl
    -7.9	4.8	1.5	25.2%	nt	-4.6	nt	nt	nt	-0.5
Cc1cc(N(C)C)cc(C)[n+]1[O-]
    -1.5	-2.6	-0.1	-0.7%	nt	-4.0	nt	nt	nt	?
COc1cccc(CCc2nnc(N)s2)c1
    -1.2	-10.2	0.7	-5.9%	-2.2	nt	5.0	4.2	-2.6	1.9
Cc1nnc(NC(=O)CSc2ccc([N+](=O)[O-])cn2)s1
    0.9	-1.6	0.2	-5.7%	-0.8	3.5	11.3	12.1	-6.5	5.8
COc1ccc(/C=N\NC(=O)c2ccccc2Br)cc1COc1c(F)c(F)cc(F)c1F
    -3.9	-19.6	0.3	-2.2%	-0.2	-2.9	-4.3	-1.7	-0.2	2.8
CCc1ccc2oc(C(=O)NCC(c3ccc(OC)cc3)N3CCCCC3)c(C)c2c1 (stereo not given)
    2.9	27.8	0.3	-0.5%	-1.6	15.5	-34.5	-37.4	-14.1	7.6
COC(=O)c1c(NC(=O)CSc2nnnn2-c2ccc3c(c2)OCO3)sc(C)c1C
    5.4	40.8	0.3	5.5%&-2.8%	nt	-1.1	nt	nt	nt	2.9
COc1ccc(S(=O)(=O)N2CCOCC2)cc1N=Nc1sc(N)nc1-c1ccccc1
    4.8	11.9	-0.1	nt	4.7	10.4	nt	nt	nt	-0.2
Oc1ccc(-c2nc3ccccc3s2)c(O)c1
    -15.3	-5.6	-14.2	30.9%	-15.4	-2.0	-60.5	-79.4	-24.7	-4.5
Cc1ccc(NC2=NC(c3ccc(F)cc3)n3c(nc(C)cc3=O)N2)c(C)c1 (stereo not given)
    -7.5	5.5	-0.5	4.1%	nt	-4.2	18.3	11.3	-0.1	-1.0
CC(NC(=O)c1ccco1)C(=O)OCc1cccc(Cl)c1 (stereo not given)
    5.2	1.4	0.4	22.9%	nt	-3.7	nt	nt	nt	4.4
CCc1ccccc1NC(=S)NCc1cccn1C
    2.9	-2.2	-0.8	nt	nt	-2.1	nt	nt	nt	-0.2
CCOC(=O)c1c(NS(=O)(=O)c2ccc(Br)cc2)sc2c1CCC2
    16.6	-11.9	0.3	?	nt	8.8	nt	nt	nt	-3.3
CCOC(=O)c1[nH]c2ccccc2c1NC(=O)c1ccc(S(=O)(=O)N2CCCC2)cc1
    0.7	10.3	2.8	-4.0%	0.5	nt	2.6	5.4	1.8	-0.7
COCCn1c(C)cc(C(=O)CSc2n[nH]c(N)n2)c1C
    -3.7	-14.2	-0.8	5.4%	nt	-3.4	nt	nt	nt	-0.8
COc1cccc(C(=O)Nc2ccc(S(=O)(=O)N3CCN(C)CC3)cc2)c1
    -11.3	-10.7	-0.6	nt	1.3	-1.5	0.2	9.6	-0.1	3.0
CCOc1ccc2nc(SCc3ccc(F)cc3)sc2c1
    -22.6	-20.5	-0.2	11.8%	nt	6.5	nt	nt	nt	2.3
Cn1c(=O)c2c(n(Cc3ccccc3)c1=O)NC(=O)C2CC(=O)NCc1cccc(Cl)c1 (stereo not given)
    -5.7	-73.7	-0.5	-6.8%	nt	-1.0	nt	nt	nt	-0.2
O=C(Nc1ccccc1Cl)NC1(C(=O)N2CCCCC2)CCCCC1
    2.1	-16.1	-0.7	15.2%	nt	-5.0	nt	nt	nt	-1.0
CC(C)CN1CCC(CN(C)Cc2nc(-c3cnccn3)no2)CC1
    -22.4	-6.8	1.5	-7.9%	9.5	-2.1	10.1	6.6	-2.2	1.2
COCCNC(=O)c1ccc(Cn2c(SCC(=O)NCC3CCCO3)nc3ccc(Br)cc3c2=O)cc1 (stereo not given)
    14.6	4.8	-0.1	-15.1%	-1.1	0.7	4.1	8.2	-1.3	0.4
C/C(=C/CCC(C)C1CCC2(C)C3CCC4C(C)(C)C(=O)CCC4(C)C3=CCC12C)C(=O)O (stereo not given)
    -10.7	-4.5	nt	?	nt	nt	nt	nt	nt	0.2
O=C1NCC(COCc2ccccc2)O1 (stereo not given)
    -10.4	-11.4	-0.1	0.7%	nt	6.1	nt	nt	nt	-0.2
Cc1ccc(S(=O)(=O)CC(O)COc2ccc(F)cc2Cl)c(C)c1 (stereo not given)
    3.8	5.6	0.7	-2.1%	-1.7	-8.7	-10.3	-14.8	1.4	-1.2
CC(=O)c1ccc(N2CCN(C(=O)C3(S(=O)(=O)c4ccc(Cl)cc4)CC3)CC2)cc1
    7.6	12.4	-1.2	-4.8%&-6.5%	nt	-1.0	nt	nt	nt	5.4
O=C(/C=C/c1ccccc1[N+](=O)[O-])N1CCOCC1
    -2.9	-9.0	0.8	nt	-3.7	-0.5	8.4	12.7	-0.9	1.4
O=C(O)Cc1ccc(NC(=O)c2ccc(NC(=O)C3CC3)cc2)cc1
    9.8	-15.1	-0.3	nt	-0.4	5.8	-1.4	10.2	0.5	2.4
Cc1ccc(NC(=O)COc2ccc3c(c2)OCO3)c(C)c1
    nt	nt	0.3	-5.6%	-15.7	-0.6	7.7	13.3	-3.1	nt
O=C(NCCN1CCOCC1)c1cccc(S(=O)(=O)N(Cc2ccccc2)c2ccccc2)c1
    -1.0	1.7	-0.2	-3.6%	-1.4	-0.1	-7.7	-8.9	2.1	nt
